TSHR agonist – agonists of human thyroid stimulating hormone receptor | hit rate 0.48% among 73,000 | HEK293-CNG-TSHR cells (CNG channel as cAMP sensor), membrane potential dye, cAMP | Potency, µM (highest dose often 57.1 µM), for inactives: at the highest dose activation, usual class: activators; active = well fitted activation curve of enough size with the parental cells flat; inconclusive = any curve in the parental cells; inactive = parental cells flat and receptor cells flat or falling; also: potency is read from the fitted curve at half-maximal effect; % of control where 0% means no effect; weak receptor curves with flat parental cells got no call and are not listed
Target sequence (P16473 whole entry, looked up): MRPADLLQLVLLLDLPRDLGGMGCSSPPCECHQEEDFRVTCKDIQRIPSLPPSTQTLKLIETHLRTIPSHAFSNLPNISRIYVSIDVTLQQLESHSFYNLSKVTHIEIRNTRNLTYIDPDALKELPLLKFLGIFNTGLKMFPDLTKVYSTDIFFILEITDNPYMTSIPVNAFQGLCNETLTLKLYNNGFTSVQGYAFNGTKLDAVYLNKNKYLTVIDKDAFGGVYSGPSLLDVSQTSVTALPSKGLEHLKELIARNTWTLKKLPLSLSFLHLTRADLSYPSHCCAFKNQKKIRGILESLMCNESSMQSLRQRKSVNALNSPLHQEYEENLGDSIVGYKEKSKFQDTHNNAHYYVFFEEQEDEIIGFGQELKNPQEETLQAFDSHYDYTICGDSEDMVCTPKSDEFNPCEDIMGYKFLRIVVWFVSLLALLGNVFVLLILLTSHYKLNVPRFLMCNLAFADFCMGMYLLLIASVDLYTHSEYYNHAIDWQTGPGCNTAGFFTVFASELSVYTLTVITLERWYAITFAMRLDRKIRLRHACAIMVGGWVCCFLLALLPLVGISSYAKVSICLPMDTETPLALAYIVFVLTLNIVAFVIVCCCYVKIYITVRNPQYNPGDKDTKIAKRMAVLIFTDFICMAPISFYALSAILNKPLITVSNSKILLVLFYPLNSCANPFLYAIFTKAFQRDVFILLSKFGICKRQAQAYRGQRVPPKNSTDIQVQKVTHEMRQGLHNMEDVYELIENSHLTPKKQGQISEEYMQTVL
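cAMP rise detected as CNG-channel membrane depolarization by fluorescent dye (emission 590 nm), 30 min after compound, following 60 min dye loading containing 100 uM RO 20-1724 at room temperature. Cells: TSHR/CNG HEK 293, with parental CNG HEK 293 as control.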
Resorufin fluor – compounds fluorescent in resorufin spectral region. Compound fluorescence, resorufin region 547/598 nm, buffer; active compounds read high. max dye-equivalent concentration, M. hit rate 0.04% among 59,000; active = above 10 nM dye equivalent; inconclusive = 1 to 10 nM; inactive = 1 nM or less; a few of its hits are not listed in these tables; also: highest value over a series up to 38 µM
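Intrinsic fluorescence profiled in the resorufin window (ex 547 nm, em 598 nm) after 15 min at room temperature in pH 8.0 Tris buffer (100 mM); responses normalized against a six-point resorufin standard series as dye-equivalent concentration.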
A647 fluor – A647 region autofluorescence. Compound fluorescence, A647 channel (570/671 nm), Tris buffer. max dye-equivalent concentration, M. 59,000 tested, under 10 active. AID 592; active means above 1 µM dye equivalent; inconclusive means 0.1 to 1 µM; inactive means 0.1 µM or less;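 also: values scaled relative to a standard on each plate; highest value over a series up to 38 µM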
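Compound fluorescence was measured in 100 mM Tris buffer, pH 8.0, after 15 min at room temperature, using 570 nm excitation and 671 nm emission filters. Signal was normalized to a per-plate Alexa 647 standard curve and expressed as dye-equivalent concentration at each compound concentration.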
A488 fluor – compound autofluorescence in A488 spectral region. max dye equivalency, M. hit rate 0.1% among 59,000. compound autofluorescence, A488 spectral region, dye equivalency; active compounds read high; active = above 10 nM dye equivalent; inconclusive = 1 to 10 nM; inactive = 1 nM or less; about half of its hits are not listed in these tables;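 also: highest value over a series up to 38 µM; compound alone in buffer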
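Autofluorescence read at ex 480/em 540 nm after 15 min RT in 100 mM Tris pH 8.0; compound signal normalized to A488 standard series on each plate, reported as dye-equivalent concentration at each test concentration.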
AID923 – qHTS Assay for Allosteric/Competitive Inhibitors of Caspase-1: Spectroscopic Profiling in AFC Spectral Region. Potency, µM (doses to about 57.5 µM), without a hit: at the highest dose fluorescence increase, most hits filed as activators. hit rate 1.1% among 75,000. compound fluorescence, AFC spectral region (405/520 nm); almost no hit is shown here. AID 923, 2007; active = well fitted activation curve with a large enough effect; inconclusive = small, poorly fitted or top-dose-only effect;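 also: potency is read from the fitted curve at half-maximal effect; 0% is about no effect; scaled to a free AFC standard on each plate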
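Compound autofluorescence profiled at 405 nm ex/520 nm em during kinetic caspase 1 run (50 nM enzyme, 5 uM Ac-WEHD-AFC, HEPES pH 7.5, 10 mM DTT). Titration up to 57 uM; baseline from regression intercept, normalized to AFC standard curve.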
The depositor's hits bear a star; i = inactive; ? = inconclusive; / = no result given; [ ] = another dose, or the depositor's remark. These rows are one share of the data. The share of hits here may be higher or lower than overall.

SMILES | TSHR agonist | Resorufin fluor | A647 fluor | A488 fluor | AID923
COC(=O)Cn1c(C)c(C(C)=O)c(C(C)=O)c1C | -1% | i | 4.8e-09 | i | 1.8%
C=C(C)c1cccc(C(C)(C)NC(=O)N2CC(C)OC(C)C2)c1 (centres undefined) | 11% | i | 1e-08 | i | -0.1%
N#Cc1cccc(-c2cn(S(=O)(=O)c3ccc(Cl)cc3)nc2N)c1 | -11% | i | 2.2e-08 | i | -1.2%
O=C(Nc1ccc(N2CCN(C(=O)c3ccco3)CC2)c(Cl)c1)c1c(F)c(F)c(F)c(F)c1F | 24% | i | 5.7e-08 | i | -0.6%
CC(=O)N1CCc2cc(Br)cc(S(=O)(=O)NCC3CCCO3)c21 (centres undefined) | -3% | i | 1e-09 | i | 1.7%
COC(=O)c1cc(OC)c(OC)cc1NC(=O)c1cc(C)on1 | 8% | i | 5.5e-09 | i | -0.6%
N#CC1=C(SCc2ccccc2)NC(=O)CC1c1cccc(O)c1 (centres undefined) | -3% | / | / | / | 0.4%
COc1cc(NC(=O)Cn2nnc(-c3ccncc3)n2)cc(OC)c1 | -1% | i | 1.8e-08 | i | 0.2%
O=C(NCc1ccco1)c1nc2ccccc2s1 | 7% | i | 1e-09 | i | -1.7%
CCn1nnc(NC(=O)c2cccc(-c3cc4ccccc4oc3=O)c2)n1 | 0% | i | 1.1e-08 | i | -2.6%
CC1(C)CC(=O)C(C=NCCc2ccc(O)cc2)=C(O)C1 | 3% | / | / | / | -0.8%
CN1CCN(CCCNC(=O)Nc2cccc3ccccc23)CC1 | 1% | i | 2.4e-08 | i | -0.5%
COC(=O)c1cccc(C(=O)Nc2ccc(C)cc2Br)n1 | 0%[11.4 µM] | i | 2.3e-08 | i | 0.3%
NC(=O)c1csc(-c2ccc(CO)o2)n1 | -2%[11.4 µM] | i | 2.4e-08 | i | -2.4%[11.5 µM]
CN(C)c1nc2ccc(OCCN3CCCCC3)cc2s1 | ? | / | / | / | 0.9%
O=c1cc(C(F)F)oc2c1ccc1ccccc12 | 25% | / | / | / | 0.8%
C(=N\c1nc2ccccc2n1CCN1CCCCC1)/c1cccs1 | 11% | i | 7.9e-09 | i | -0.6%
CCOC(=O)c1[nH]c(C)c(C(=O)N2CCc3ccccc32)c1C | ? | i | 8.6e-09 | i | 1.0%
CN(C)c1ccc(C=Nc2cnn(C)c2C(N)=O)cc1 | / | i | 6.3e-08 | i | /
COc1ccc(NS(=O)(=O)c2cccc(C(=O)O)c2)cc1 | 2%[11.4 µM] | i | 2.6e-09 | i | -0.7%
CCOc1ccc(NC(=O)CSc2n[nH]c(=O)n2-c2ccccc2)cc1 | 2% | i | 1e-09 | i | 0.0%
COc1ccc(NC(C)=O)cc1NC(=O)CN1CCN(CC(=O)Nc2ccc(Cl)cc2)CC1 | 0% | i | 2e-08 | i | 0.2%
CCc1[nH]nc2c1C(c1cccnc1)C(C#N)=C(N)O2 (centres undefined) | 4% | i | 8.1e-09 | i | -0.5%
Cc1ccc(S(=O)(=O)Cc2ccc(C(=O)N3CCN(Cc4ccccc4)CC3)o2)cc1 | ? | / | / | / | 0.1%
COc1ccccc1OCc1nc(Cc2ccc(Cl)cc2)no1 | / | i | 1e-09 | i | -0.3%
Cc1occc1-c1nnc(SCC(=O)N2CCOCC2)n1Cc1ccco1 | 7% | i | 1e-09 | i | 2.9%
CC(=O)c1c(N)n(C)c(=O)n(C)c1=O | 0%[11.4 µM] | i | 1e-09 | i | 1.1%
CCOC(=O)c1cc(CC)sc1NC(=O)COC | 16% | i | 1.8e-08 | i | 1.0%
CC(C(=O)NCc1ccc2c(c1)OCO2)N(c1ccccc1)S(C)(=O)=O (centres undefined) | 1% | i | 1e-09 | i | 0.6%
CC1CCCC(NC(=O)CSc2ncccc2C(=O)O)C1C (centres undefined) | 0% | i | 3.5e-08 | i | -0.9%
COc1ccc(N(CC(=O)Nc2cccc(C(=O)O)c2)S(=O)(=O)c2c(C)noc2C)cc1 | -4% | i | 1.8e-08 | i | -1.7%
Cc1nnc(SCC(=O)Nc2ccc(S(=O)(=O)N3CCCC3)cc2)n1N | -3% | i | 3.2e-08 | i | 0.7%
O=C(Cn1c(=O)[nH]c2ccsc2c1=O)N1CCN(c2ccc(F)cc2)CC1 | -2% | i | 5.1e-09 | i | 1.0%
COC(=O)CN(c1cccc(C(C)=O)c1)S(C)(=O)=O | 1% | i | 1e-09 | i | 1.0%
O=C(Nc1cccc(-c2nc3cc(Cl)ccc3o2)c1)C1CCCO1 (centres undefined) | 3% | i | 4.9e-08 | i | 0.0%
CC(C)(C)Cc1nc(-c2ccccn2)no1 | 2% | i | 6e-08 | i | -0.8%
O=C(Nc1ccccc1C(=O)NCc1ccccc1)c1ccco1 | 29% | i | 6.2e-09 | i | -0.3%
O=C(N1CCCCC1)C1(c2ccccc2)CCOCC1 | ? | i | 1.3e-08 | i | 0.9%
CC(C)CCn1c(=O)c2ccccc2n2c(COC(=O)c3ccc(S(=O)(=O)N(C)C)cc3)nnc12 | 2% | i | 3.9e-08 | i | -0.4%
CC1(C)Cc2noc(N)c2C(C)(C)N1O | 24% | i | 1.2e-08 | i | 2.7%
O=c1c2ccccc2c2ccccc2c(=O)n1-c1cc2c3ccccc3ccc2c2ccccc12 | -3%[11.4 µM] | i | 1.9e-09 | i | -1.7%[11.5 µM]
COc1ccc(-c2cc3nc4n(c(=O)c3s2)CCC4)cc1 | 3% | i | 6.7e-09 | i | -2.3%
O=C(CCS(=O)(=O)c1cccs1)NC1CCCCCC1 | 5% | i | 1e-09 | i | -0.9%
O=C(CCC(=O)c1cccs1)Nc1nnc(C2CC2)s1 | 1% | i | 3.3e-08 | i | 0.0%
Clc1ccc(-c2nnc(NC3=NCCCCC3)o2)cc1 | -12% | i | 1.8e-08 | i | 0.6%
CC(C)(C)c1ccc(Cn2nnc3c(=O)[nH]c(C4CCCN(C(=O)Cc5cccs5)C4)nc32)cc1 (centres undefined) | 16% | i | 1e-09 | i | -1.5%
CC1=C(C(=O)Nc2ccc(F)cc2)C(c2cccc(C)c2)n2nc(CCCO)nc2N1 (centres undefined) | -14% | / | / | / | -0.6%
CCCCN=CC1=C(O)C(C(=O)OC)C(C)(C)CC1=O (centres undefined) | 2% | / | / | / | 2.2%
CC(=O)NC1CSCC1OC(C)=O (centres undefined) | 12% | / | / | / | 0.4%
COc1ccc(CNC(=O)CN(c2cc(C)cc(C)c2)S(=O)(=O)c2c(C)noc2C)cc1 | 14% | / | / | / | 1.2%
C[C@@H]1O[C@@H](OC[C@@H]2O[C@@H](Oc3c(-c4ccc(O)c(O)c4)oc4cc(O)cc(O)c4c3=O)[C@H](O)[C@H](O)[C@@H]2O)[C@H](O)[C@H](O)[C@@H]1O | -2% | i | 3.8e-09 | i | /
COc1ccc(C(=O)N2CCC3(CCN(C(=O)Nc4cccc(F)c4)CC3)CC2)cc1 | ? | i | 1e-09 | i | 0.7%
O=C(Nc1nnc(-c2ccccc2)o1)Nc1ccccc1Cl | -4% | / | / | / | 2.5%
CCc1cccc2c3c([nH]c12)[C@](CC)(CC(=O)O)OCC3 | ? | i | 4.8e-08 | i | /
CCOc1cc(N2CCOCC2)c(OCC)cc1NC(=O)Cc1ccc(OC)c(OC)c1 | -20% | i | 3.9e-08 | i | -0.3%
CCOC(=O)N1CCN(C(=O)CCc2c(C)nc3c(c(C)nn3-c3ccc(C)c(C)c3)c2C)CC1 | -2% | i | 1.2e-08 | i | -0.1%
CC(C(=O)NC1CCCC1)N(Cc1ccco1)C(=O)c1snc(C(=O)NC2CCCC2)c1N (centres undefined) | 17% | i | 2.1e-08 | i | 3.0%
Cc1cc(C)n(CC2CC(=O)N(c3cc(Cl)cc(Cl)c3)C2=O)n1 (centres undefined) | / | i | 1.5e-08 | i | /
COc1cc(C(=O)NCC(c2ccco2)N2CCCC2)ccc1OCc1c(C)noc1C (centres undefined) | 6% | i | 3.9e-09 | i | -1.5%
COc1ccc(C(=O)C(CN2CCOCC2)c2ccccc2)cc1F (centres undefined) | -1% | i | 3.8e-09 | i | -0.6%

For reference, part of the list above.
SMILES | TSHR agonist | Resorufin fluor | A647 fluor | A488 fluor | AID923
COC(=O)Cn1c(C)c(C(C)=O)c(C(C)=O)c1C | -1% | i | 4.8e-09 | i | 1.8%
C=C(C)c1cccc(C(C)(C)NC(=O)N2CC(C)OC(C)C2)c1 (centres undefined) | 11% | i | 1e-08 | i | -0.1%

Next part:
SMILES | TSHR agonist | Resorufin fluor | A647 fluor | A488 fluor | AID923
O=C(C1=C(O)C(=O)N(CC2CCCO2)C1c1cccnc1)c1ccco1 (centres undefined) | 1% | i | 4.8e-09 | i | 0.8%
CN(C)S(=O)(=O)c1cccc(C(=O)OCC(=O)Nc2ccccc2OC(F)F)c1 | 11% | i | 3.2e-09 | i | -0.1%
Cc1cc(NC(=O)C2CCCN(S(=O)(=O)c3c(C)noc3C)C2)no1 (centres undefined) | -10% | / | / | / | 2.0%
COc1ccc(OC)c2c1CCC2=O | / | i | 7.6e-08 | i | /
N#Cc1c(-c2ccccc2)no[n+]1[O-] | / | i | 2.5e-09 | i | -1.0%
CCn1c(=O)cc(OCC(=O)Nc2ccccc2N2CCN(C)CC2)c2ccccc21 | 8% | / | / | / | 3.1%
c1cc(CSc2ncnc3nc[nH]c23)ccn1 | 1%[11.4 µM] | i | 9.7e-09 | i | 3.3%[11.5 µM]
COc1ccc(-c2nc3cncnc3n(-c3ccccc3)c2=O)cc1 | 6% | i | 1e-09 | i | 21%
O=c1c2ccccc2[nH]c(=S)n1CCN1CCN(Cc2ccccc2)CC1 | -2% | i | 1.3e-09 | i | 2.4%
Cc1ccc2cc(C#N)c(NCc3ccco3)nc2c1 | -5% | i | 2.4e-08 | i | 15%
CC1(N2CCCCC2)CC2(O)C(=[N+]1[O-])CCC/C2=N\O (centres undefined) | -5% | i | 1e-09 | i | -0.2%
Cc1noc(C)c1-c1cncnc1NCCN1CCOCC1 | 2% | i | 1.7e-08 | i | 1.6%
COc1ccccc1CCn1c(=O)c(-c2ccccc2)nc2cncnc21 | ? | i | 1e-09 | i | 2.9%
Cc1onc(-c2ccccc2)c1C(=O)Nc1ccc(OC(C)C)cc1 | 19% | / | / | / | -0.2%
COc1cccc(-c2nnn(CC(=O)O)n2)c1 | 7% | i | 1.1e-09 | i | 0.3%
Cc1cc(=O)n(-c2ccc3ccccc3n2)[nH]1 | 7% | i | 1e-09 | i | -0.1%
CCCc1cc(N2CCCC(C(=O)Nc3ccc(OC)cc3OC)C2)n2ncnc2n1 (centres undefined) | 0% | i | 1e-09 | i | 0.9%
CCC(C)NC(=O)CCC(=O)Nc1ccc2nc(N3CCOCC3)cc(C)c2c1 (centres undefined) | -2%[11.4 µM] | i | 6.5e-09 | i | 0.6%
Cn1c(NCCc2ccccc2)cc(=O)n(C)c1=O | 11% | / | / | / | 0.9%
O=C(CSc1ncccn1)NCCc1ccccc1 | 2%[11.4 µM] | / | / | / | -2.5%

Reprinted at random: seven records from the list, in no set order.
SMILES | TSHR agonist | Resorufin fluor | A647 fluor | A488 fluor | AID923
CC1(N2CCCCC2)CC2(O)C(=[N+]1[O-])CCC/C2=N\O (centres undefined) | -5% | i | 1e-09 | i | -0.2%
O=c1c2ccccc2[nH]c(=S)n1CCN1CCN(Cc2ccccc2)CC1 | -2% | i | 1.3e-09 | i | 2.4%
Cc1ccc2cc(C#N)c(NCc3ccco3)nc2c1 | -5% | i | 2.4e-08 | i | 15%
Cc1noc(C)c1-c1cncnc1NCCN1CCOCC1 | 2% | i | 1.7e-08 | i | 1.6%
Cc1cc(=O)n(-c2ccc3ccccc3n2)[nH]1 | 7% | i | 1e-09 | i | -0.1%
O=C(C1=C(O)C(=O)N(CC2CCCO2)C1c1cccnc1)c1ccco1 (centres undefined) | 1% | i | 4.8e-09 | i | 0.8%
COc1ccc(-c2nc3cncnc3n(-c3ccccc3)c2=O)cc1 | 6% | i | 1e-09 | i | 21%
